Compound activity as filed in PubChem.
SmPrx2 inh: inhibitors of Schistosoma mansoni peroxiredoxin 2. S. mansoni Prx2 activity coupled to TGR/GSH (TGR is thioredoxin glutathione reductase), NADPH fluorescence loss, qHTS; some inactives read as strong as hits. AID 448. Potency, µM. 0.07% of 65,000 active; active means full or partial inhibition curve with a strong effect at the top dose; inconclusive means weaker partial or single-point curve; inactive means no accepted curve; also: series up to 57 µM; many of its hits are not listed in these tables
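Purified S. mansoni TGR and Prx2 in pH 7.4 phosphate buffer with EDTA and Tween-20 were preincubated with compounds for 15 min. Further NADPH/GSH was added, then a 2.5 mM H2O2 aliquot initiated turnover, followed kinetically by NADPH fluorescence.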
Anthrax LT inh: blocks cellular internalization of anthrax lethal toxin | Potency, µM (series often up to 40 µM), for the others: top-dose activity change, negative = inhibition, most hits filed as inhibitors | 0.67% of 70,000 active | Cells, anthrax lethal toxin internalization, FRET ratio (460/530); active = well fitted falling ratio curve with the 530 nm signal flat; inconclusive = other ratio curves, or a change in one channel alone; inactive = flat curves in the ratio and both channels; the % refers to the ratio; also: % is scaled to controls: 0 for no effect and ±100 for the full control effect; nearly all actives have a fitted effect of over 50% in size; tested in ME-180 cells; beta-lactamase reporter
* = called active by the depositor; ? = inconclusive; nt = no result given; [ ] = remark or other dose. Potency is read from the fitted curve at half-maximal effect.

Values run as follows: SmPrx2 inh	Anthrax LT inh
#1 CCC(=O)NC(C)c1nc2ccccc2n1C (configuration not stated)
    >57	-4%
#2 Cc1ccc(OCc2nc(C#N)c(NCc3ccc4c(c3)OCO4)o2)cc1
    >57	?
#3 CC(C)NS(=O)(=O)c1ccc(OCC(N)=O)c(Cl)c1
    >57	0%
#4 CCCCOc1ccc(C(=O)NCCCC(=O)N2CCCCC2)cc1
    >57	-9%
#5 CC1CCCCC1NC(=O)COc1ccc(-n2cnnn2)cc1 (configuration not stated)
    >57	-8%
#6 Cc1nc(N2CCN(C)CC2)[nH]c(=O)c1Cc1cccc2ccccc12
    >57	2%
#7 O=c1c2[nH]c3cccc(Cl)c3c2ncn1Cc1ccncc1
    >57	14%
#8 CCN(CC)C(=O)CSc1nsc(SCC(=O)N(CC)CC)c1C#N
    nt	-11%
#9 O=C(NCc1cccs1)C1CC(=O)N(C2CCCC2)C1 (configuration not stated)
    >57	-1%
#10 CCOCCCn1c(=S)[nH]c2cc(C(=O)N3CCOCC3)ccc2c1=O
    >57	?
#11 Oc1cc(O)cc(/C=C\c2ccc(O)c(O)c2)c1
    >57	3%
#12 CCn1c(SCc2ccc(OC)cc2)nnc1-c1ccncc1
    >57	13µM*
#13 Cc1ccc(-c2nnn(CC(=O)N(CC(=O)NCc3ccccc3)c3cccc(C)c3C)n2)o1
    >57	?
#14 CCOC(=O)c1oc2ccccc2c1CSc1nnnn1-c1ccc(OC)cc1
    >57	0%
#15 CSC([N-]/N=C/c1cccc(C)n1)=[S]=[Cu].CS[C@H]([S-])[N-]/N=C/c1cccc(C)n1
    >11	?
#16 CCCC(N)CCCCCC(=O)O (configuration not stated)
    nt	-3%
#17 COc1cc(OC)cc(C(=O)NCc2n[nH]c(=S)n2-c2ccccc2OC)c1
    >57	8%
#18 O=S(=O)(NCc1ccccc1)c1cccc2nonc12
    >57	nt
#19 CC1(C)Oc2ccc3ccc(=O)oc3c2-c2cn[nH]c21
    >57	-13%
#20 COc1ccc(NS(=O)(=O)c2coc(C(N)=O)c2)cc1Cl
    >57	-4%
#21 Cc1sc2nc(SCc3nc4ccccc4[nH]3)n(Cc3ccco3)c(=O)c2c1C
    >57	?
#22 CC(C)(C)c1ccc(C(=O)NCc2cccnc2)cc1
    >57	-9%
#23 CCCCN1C(=O)C(NC(C)=O)c2cc(Br)ccc21 (configuration not stated)
    >57	?
#24 CC(=O)N1C(C(=O)O)CSC1c1cccc(C)c1 (configuration not stated)
    >57	-5%
#25 COCCOC(=O)C1=C(C)NC(=O)NC1c1ccc(OC(=O)c2ccco2)c(OC)c1 (configuration not stated)
    nt	-16%
#26 Cc1ccc(-c2nc(CS(=O)(=O)CC(=O)NCCCN3CCN(C)CC3)c(C)o2)cc1
    >57	10%
#27 O=C(NCC(=O)N(c1ccc2c(c1)OCO2)C(C(=O)NC1CCCC1)c1ccncc1)c1ccco1 (configuration not stated)
    ?	15%
#28 CCOC(=O)C1C(C)=CC(=O)CC1c1ccco1 (configuration not stated)
    >57	-9%
#29 Cc1cc2ncn(S(=O)(=O)N3CCOCC3)c2cc1C
    >57	4%
#30 CCCN1C(=O)C(NC(C)=O)c2cc(OC)ccc21 (configuration not stated)
    >57	nt
#31 Cc1c(N=Cc2ccc(-c3ccc(Cl)cc3)o2)c(=O)n(-c2ccccc2)n1C
    >57	-15%
#32 O=C(Cn1cnc2c(nnn2Cc2ccc(F)cc2)c1=O)OCc1ccccc1
    >57	?
#33 Cc1cccc(-n2nnc(C(=O)NC3CCCc4ccccc43)c2N)c1 (configuration not stated)
    >57	-30%
#34 CC(C)c1ccc(OCC(=O)NCc2ccco2)cc1
    >57	-6%
#35 C[C@@H]1CC2(OC3C[C@@]4(C)C5=CC[C@H]6C(C)(C)C(O[C@@H]7OC[C@@H](O)[C@H](O)[C@H]7O)CC[C@@]67C[C@@]57CC[C@]4(C)C31)OC(O)C1(C)OC21 (some centres not stated)
    nt	-9%
#36 CCOC(=O)c1ccc(Oc2c(C)oc3c(CN4CCN(C)CC4)c(O)ccc3c2=O)cc1
    >57	-5%
#37 c1csc(-c2nnc3ccccn23)c1
    >57	1%
#38 CCn1c(SCC(=O)Nc2nonc2C)nnc1-c1ccco1
    >57	2%
#39 O=C(CSc1nc(O)cc(=O)[nH]1)Nc1ccc2c(c1)CCC2
    >57	-11%
#40 COC(=O)CCc1nc2ccccc2[nH]c1=O
    >57	0%
#41 Clc1ccccc1Cn1nnc2c(N3CCCC3)ncnc21
    >57	-15%
#42 Cc1cc(C(=O)NCCN2CCCCC2C)n(-c2ccccc2)n1 (configuration not stated)
    >57	-4%
#43 N#CCc1nnc2n1-c1ccccc1CCC2
    >57	-4%
#44 Cc1cccc2cc(CN(Cc3ccco3)C(=O)N3CCCC3)c(=O)[nH]c12
    >57	16%
#45 C=C(C)C(O)/C=C/c1cccc(OC)c1 (configuration not stated)
    nt	0%[8 µM]
#46 Cc1ccc(/C=c2/sc3nnc(-c4ccccc4Cl)n3c2=O)o1
    nt	-5%
#47 CN(C)c1ccnc2sc3c(=O)n(Cc4ccccc4)cnc3c12
    >57	?
#48 CCOC(=O)c1cc2c(=O)n3ccccc3nc2n(Cc2ccco2)c1=NC(=O)c1cccnc1
    >57	?
#49 NC(N)=Nc1ccc2[nH]c3c(c2c1)C[C@]1(O)[C@@H]2Cc4ccc(O)c5c4[C@]1(CCN2CC1CC1)[C@H]3O5
    >57	3%
#50 COc1ccc(CN2CCN(C(=O)CC(C)C)CC2)c(OC)c1OC
    nt	4%

Next section.
Values run as follows: SmPrx2 inh	Anthrax LT inh
#51 Cc1cc(N2CC34C=CC(O3)C(C(=O)O)C4C2=O)no1 (configuration not stated)
    >57	1%
#52 COc1cccc(OC)c1C(=O)N1CCN(S(=O)(=O)c2ccccc2)CC1
    >57	19%
#53 Cc1nc2ccc(NC(=O)N3CCC(c4ccccc4)C3)cc2nc1C (configuration not stated)
    >57	-1%
#54 CCOC(=O)c1c(CN2CCN(c3ccccc3)CC2)oc2ccc(O)cc12
    >57	?
#55 COc1ccccc1NC(C)=O
    >57	-4%
#56 COc1ccc(C(C)(C)C)cc1NC(=O)c1c(C)noc1C
    >57	6%
#57 O=C(CCCCCn1c(SCc2ccncc2)nc2ccccc2c1=O)NCc1ccco1
    >57	nt
#58 O=C(CCCN1C(=O)c2ccccc2C1=O)Nc1sc2c(c1C(=O)NCc1ccco1)CCC2
    >57	-13%
#59 Cc1nn(-c2nc3ccccc3s2)c(C)c1Oc1ccccc1O
    >57	10µM*
#60 O=C(NCc1ccc2c(c1)OCO2)c1cc(-n2cnnc2)ccc1Cl
    nt	-2%
#61 Nc1nc(SCC(=O)Nc2ccc(Br)cc2F)n[nH]1
    >57	?
#62 CCOC(=O)C1C2C=CC3(CN(C4CCCC4)C(=O)C13)O2 (configuration not stated)
    >57	16%
#63 CCOC(=O)Cc1nnc(NC(=O)Nc2ccccc2)s1
    >57	-8%
#64 COc1ccc(S(=O)(=O)Cc2ccc(C(=O)N3CCN(c4ccccn4)CC3)o2)cc1
    >57	-14%
#65 Cc1cc2c(=O)n(CC(=O)N3CCN(c4ccc(F)cc4)CC3)cnc2s1
    >57	2%
#66 CCn1c(NC(=O)c2cccc(Cn3cc(Cl)cn3)c2)nc2ccccc21
    >57	1%
#67 Cn1c(C(=O)N2CCCC(C(=O)NCCCSC3CCCCC3)C2)cc2sccc21 (configuration not stated)
    >57	?
#68 CC1=C2C(=O)[C@@H]3[C@@H](CC=C4C[C@@H](O)CC[C@@]43C)[C@H]2CC[C@@]12O[C@H]1C[C@H](C)CN[C@H]1[C@@H]2C
    >57	?
#69 Cc1nn(C)c(C)c1S(=O)(=O)Nc1ccc2c(c1)OCO2
    >57	?
#70 CCC(C)(C)n1nnnc1C(c1ccccn1)N1CCOCC1 (configuration not stated)
    >57	3%
#71 Cc1ccc(CNC(=O)CN2C(=O)COc3ccc(C)cc32)cc1
    >57	-16%
#72 CC(C)(C)OC(=O)N1CCCC(C(=O)CC#N)C1 (configuration not stated)
    >57	-11%
#73 CCOC(=O)CC(=O)CSc1nc(-c2cccnc2)ccc1C#N
    >57	-19%
#74 Clc1ccc(-c2nn3c(-c4ccccc4)nnc3s2)cc1
    >57	5%
#75 CC(=O)Nc1ccc(C(=O)CSc2nnc(Cn3nnc4ccccc43)n2C)cc1
    >57	-7%
#76 Cc1c(N=Cc2c(O)n(Cc3ccco3)c(=O)c3ccccc23)c(=O)n(-c2ccccc2)n1C
    >57	9%
#77 CCOC(=O)c1sc(NC(=O)CSc2n[nH]c(-c3ccccc3)n2)c(C#N)c1C
    nt	?
#78 CCC(=NCc1ccco1)c1c(O)n(-c2ccc(OC)cc2)c(=O)[nH]c1=O
    >57	6%
#79 COc1ccc(CN2C(=O)CN=C2Nc2cccc(C)c2C)cc1
    >57	?
#80 COc1cccc(C2CC(c3ccccc3)Nc3ncnn32)c1 (configuration not stated)
    >57	-29%
#81 O=c1[nH]cnc2sc3c(c12)CCCC3
    >57	6%
#82 CN(CC(=O)Nc1ccc2c(c1)OCCO2)S(=O)(=O)c1ccc(Br)s1
    >57	0%
#83 CC#CCCC(=O)N1C=Cc2ccccc2C1C#N (configuration not stated)
    >57	-3%
#84 Nc1nc(SCc2ccc([N+](=O)[O-])cc2)c2ncn([C@@H]3O[C@@H](CO)[C@@H](O)[C@H]3O)c2n1
    >57	?
#85 Cc1nn(S(=O)(=O)N2CCCCC2)c(C)c1Br
    >57	-21%
#86 NC(N)=N[C@@H]1C(O)[C@H](N=C(N)N)[C@@H](O)C(O)[C@H]1O (some centres not stated)
    >57	-6%[8 µM]
#87 O=C(C1=C(O)C(=O)N(Cc2ccco2)C1c1cccnc1)c1cc2ccccc2o1 (configuration not stated)
    >57	nt
#88 Cc1ccc(S(=O)(=O)NC2CCCC(C(=O)O)C2)cc1 (configuration not stated)
    >57	-5%
#89 O=C(CSc1nc(NS(=O)(=O)c2ccccc2)cc(=O)[nH]1)Nc1ccc(F)cc1
    >57	-9%
#90 C[N+](C)(C)c1ncnc2c1ncn2[C@@H]1C[C@H](O)[C@@H](CO)O1
    >57	-8%[8 µM]
#91 Cn1c(NCc2cccs2)nc2ccccc21
    >57	-3%
#92 COc1ccc(/C(O)=C2/C(=O)C(=O)N(Cc3cccnc3)C2c2ccncc2)cc1F (configuration not stated)
    >57	-4%
#93 COC(=O)N(c1ccc(OC)cc1)P1(=S)OCCC(C)O1 (configuration not stated)
    >57	2%
#94 Cc1c(Cl)cccc1NC(=O)c1cc(C2CC2)on1
    >57	-20%
#95 Cc1ccccc1-c1nc(CS(=O)(=O)CC(=O)Nc2cc(F)ccc2F)c(C)o1
    ?	-28%
#96 O=C(NCCc1cccc(Cl)c1)c1cccnc1
    nt	-16%
#97 CCOC(=O)c1[nH]c(C)c(C(=O)NC2CCCCC2)c1C
    >57	-5%
#98 COc1ccc(NC(=O)Cn2nc3n(c2=S)CCC3)cc1
    >57	12%
#99 Cc1[nH]nc2c1C(c1cccc(O)c1)C1=C(CC(C)(C)CC1=O)N2 (configuration not stated)
    >57	?
#100 COC(=O)[C@@]1(Cc2ccccc2)[C@H]2c3cc(C(=O)N(C)C)n(CCSCCO)c3C[C@H]2CN1C(=O)c1ccccc1
    >57	-2%

Looked up by compound from the list above, 2 records:
Values run as follows: SmPrx2 inh	Anthrax LT inh
#98 COc1ccc(NC(=O)Cn2nc3n(c2=S)CCC3)cc1
    >57	12%
#100 COC(=O)[C@@]1(Cc2ccccc2)[C@H]2c3cc(C(=O)N(C)C)n(CCSCCO)c3C[C@H]2CN1C(=O)c1ccccc1
    >57	-2%

Additional records follow:
Values run as follows: SmPrx2 inh	Anthrax LT inh
#101 Cc1cnn(C(=S)NCC2CCCO2)c1 (configuration not stated)
    >57	10%
#102 O=C(N1CCCCC1)N1CCCN(C(=O)N2CCCCC2)CC1
    >57	17%
#103 O=C(CN1CCCN(S(=O)(=O)c2ccc(Br)cc2)CC1)Nc1ccc2c(c1)OCO2
    >57	-7%
#104 COC(=O)c1sccc1NS(=O)(=O)c1ccc(OC)cc1
    nt	?
#105 CCOC(=O)C(CC)n1cnc2c(oc3ccccc32)c1=O (configuration not stated)
    >57	9%
#106 CNC(=O)Cn1nc(C)c2ccccc2c1=O
    >57	-16%
#107 Cc1cccc(NC(=O)c2ccccc2OCC(=O)N2CCOCC2)c1C
    >57	4%
#108 Cc1ccc(C(=O)Nc2ccncc2)o1
    >57	-17%
#109 CC(C)(C)C(=O)c1no[n+]([O-])c1/C(=N/O)C(C)(C)C
    >57	nt
#110 Cc1ccc(C)c(NC(=O)c2nnn(Cc3ccccc3C)c2N)c1
    >57	-19%
#111 CC(C)(C)NC(=O)CN(C(=O)CS(=O)CC(=O)Nc1ccc(F)cc1)c1ccc(F)c(Cl)c1 (configuration not stated)
    >57	2%
#112 Cc1ccc(C(=O)c2cn[nH]c2-c2cc(Cl)ccc2O)cc1
    >57	nt
#113 O=C(NC1CC1)C1CCCN(C(=O)Nc2ccc(F)cc2)C1 (configuration not stated)
    >57	4%
#114 CCCNC(=O)c1cc(-c2ccc(OC)cc2)on1
    >57	-6%
#115 NS(=O)(=O)c1ccc(CCNC(=O)C2CCCN(S(=O)(=O)c3cccnc3)C2)cc1 (configuration not stated)
    >57	-10%
#116 Cc1nnc(Sc2nc3c(c(=O)n(C)c(=O)n3C)n2Cc2ccccc2Cl)s1
    >57	-2%

An excerpt; rates above refer to the full screens.
